# Source: PubChem BioAssay
# Calb FLC = affects C. albicans growth with fluconazole; growth inhibition, % (test concentration not listed); 0.57% of 300,000 active; C. albicans CaCi-2 (fluconazole-resistant clinical isolate) + fluconazole, Alamar Blue growth, 48 h; AID 1979;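 active means most replicates above 75%; inconclusive means exactly half above 75%; inactive means most below 75%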;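 further: all wells also contain fluconazole at 8 µg/ml as a sub-toxic cotreatment; 0% = median of DMSO wells and 100% = median of geldanamycin control wells; wells of about 8 µL received 7.5 nL stock; the first replicate is given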
# Beta cell apopt = blocks beta cell apoptosis; INS-1E cytokine-induced death, ATP luminescence, 48 h; percent of positive-control rescue, neutral wells zero; protection from apoptosis, % (no concentration beside the values); 0.8% of 300,000 active;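 active means all replicates at 75% or more, or half of them and the mean; inconclusive means half reach 75% but not the mean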;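 further: 0% = cytokine-treated negative control wells and 100% = positive control rescue; higher means more ATP so stronger rescue from cytokine killing; wells of about 40 µL received 100 nL stock; the first replicate is given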
# ALR inh = human ALR oxidase inhibition via reduced H2O2. P55789. purified ALR, DTT oxidation, H2O2 HRP-luminol luminescence. inhibition, % (no concentration beside the values). 3.8% of 290,000 active. AID 485317;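 active means mean and each replicate at 75% or more; inconclusive means only one of the two met; inactive means neither met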;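 further: stock transfer was 7.5 nL into about 7.5 µL; 0% = neutral wells and 100% = wells with inactivated enzyme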
# Target sequence (P55789 whole entry, looked up): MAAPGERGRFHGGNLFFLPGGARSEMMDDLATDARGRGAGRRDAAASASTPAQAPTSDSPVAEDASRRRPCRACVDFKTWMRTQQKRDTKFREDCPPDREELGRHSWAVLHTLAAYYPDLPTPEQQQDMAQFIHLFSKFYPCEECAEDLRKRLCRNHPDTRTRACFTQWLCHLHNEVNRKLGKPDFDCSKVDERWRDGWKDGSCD
# rRNA inh HTS = inhibits bacterial ribosomal RNA function over humanized ribosomes; E. coli WT GFP vs humanized-ribosome RFP mutants, fluorescence, 24 h; hits give low values; DMSO median 0, no signal -100; GFP signal change (wild-type ribosome), % (no concentration beside the values); 1.6% of 350,000 active;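 active means significant combined selectivity score with lowered wild-type GFP, culture density cut under 30%, mutant RFP and density less affected; inactive means any of these conditions unmet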; further: one replicate is shown; some compounds called inactive have numbers as strong as hits
# T cruzi inh = T. cruzi replication inhibition; 1.4% of 300,000 active; inhibition, % (concentration not given with the values); AID 1885; T. cruzi beta-gal in NIH3T3, luminescence, 90 h;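 active means mean inhibition across valid replicates above about 55%, limit read from the data; inconclusive means mean below that limit but half or more replicates reach it; inactive means mean below it, under half of replicates reach it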;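 further: signal also drops with host cell toxicity which is not excluded here; 0% = plate median of DMSO wells and 100% = zero luminescence signal; higher percent means less beta-gal luminescence so fewer parasites; stock transfer was 50 nL into about 50 µL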
# RanGTP-Imp inh = inhibitors of RanGTP-importin-beta interaction, primary screen, biochemical, FRET, CFP-Ran, YFP-importin-beta, homogeneous | cell-free CFP-Ran/YFP-importin-beta FRET ratio | inhibition, % (test concentration not listed) | 1.1% of 300,000 active | AID 2216;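 active means most replicates above 15%; inconclusive means exactly half above 15%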;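 further: 0% = DMSO wells and 100% = Ran loaded with GDP instead of GTP; wells of about 40 µL received 100 nL stock; the first replicate is given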
# FGF22 binding = binders of recombinant human FGF22 by thermal shift. 1.5% of 340,000 active. calls only at 9.99 µM. AID 651658. SYPRO orange fluorescence; percent of sucrose octasulfate shift, DMSO zero. Q9HCT0;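 active means melting point raised past a set limit in the mean and every replicate; inconclusive means no clear call; three in four hits are not shown here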
# Target sequence (Q9HCT0 whole entry, looked up): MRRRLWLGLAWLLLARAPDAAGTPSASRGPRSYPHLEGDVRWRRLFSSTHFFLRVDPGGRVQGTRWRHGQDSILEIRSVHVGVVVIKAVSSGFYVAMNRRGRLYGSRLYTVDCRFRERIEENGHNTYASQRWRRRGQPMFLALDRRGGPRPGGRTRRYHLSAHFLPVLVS
# MLL AF4-AF9 inh = blocks AF4 peptide binding to human AF9. inhibition, % at 10 µM. AID 651704. P42568. AlphaScreen, biotin-AF4 peptide binding to FLAG-AF9. 0.47% of 350,000 active;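 active means every replicate reaching a set inhibition limit, whatever the replicate mean, cut at about 25% in these data; inconclusive means mean inhibition reaches that limit but some replicates miss it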;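 further: 0% = plate neutral control median and 100% = total signal loss; the record names both 10 and 1 µM as test concentration; the first replicate is given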
# Target sequence (P42568 whole entry, looked up): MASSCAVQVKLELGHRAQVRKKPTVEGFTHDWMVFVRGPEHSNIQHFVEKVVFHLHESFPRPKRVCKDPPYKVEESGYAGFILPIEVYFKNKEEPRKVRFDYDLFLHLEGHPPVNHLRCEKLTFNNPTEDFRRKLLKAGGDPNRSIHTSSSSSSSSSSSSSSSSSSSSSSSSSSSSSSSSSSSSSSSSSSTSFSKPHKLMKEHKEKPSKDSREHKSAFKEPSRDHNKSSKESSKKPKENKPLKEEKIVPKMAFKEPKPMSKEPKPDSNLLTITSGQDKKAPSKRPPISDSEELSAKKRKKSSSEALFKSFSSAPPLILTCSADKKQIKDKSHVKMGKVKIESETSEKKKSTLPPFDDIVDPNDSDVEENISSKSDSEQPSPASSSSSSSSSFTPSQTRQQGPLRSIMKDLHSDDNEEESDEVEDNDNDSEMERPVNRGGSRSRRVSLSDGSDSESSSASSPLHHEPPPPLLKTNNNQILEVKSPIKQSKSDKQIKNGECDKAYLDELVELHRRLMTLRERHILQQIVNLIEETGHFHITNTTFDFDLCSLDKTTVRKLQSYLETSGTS
# rRNA inh HTS OD600 = also measured in rRNA inh HTS; calls as there; OD600 change, %; measured here: OD600 growth;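 optical density of the mix in the first replicate; 0 = DMSO median and -100 = no signal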
# rRNA inh HTS RFP = further read-out of rRNA inh HTS, marked with its call; RFP signal change, %; measured here: RFP humanized mutant strains;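 first replicate; 0 = DMSO median and -100 = no signal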
# * marks the source's active call; other numbers are inactive results; i = inactive; ? = inconclusive; nt = not tested or not shown. Not all compounds are listed. The share of hits here may be higher or lower than overall.
SMILES,Calb FLC,Beta cell apopt,ALR inh,rRNA inh HTS,rRNA inh HTS OD600,rRNA inh HTS RFP,T cruzi inh,RanGTP-Imp inh,FGF22 binding,MLL AF4-AF9 inh
CCOC(=O)/C(C(=O)Nc1ccc(Br)cc1)=C1/NC(C)(C)Cc2ccccc21,-6,2,4,-1,11,1.4,23,-2.1,i,4.7
CC(C)Cn1c(-c2ccco2)csc1=Nc1cccnc1,3,-7,-24,nt,nt,nt,-8,2.0,nt,nt
Cc1cccc(-n2nc([N+](=O)[O-])c(=NC3CCN(Cc4ccccc4)CC3)n2O)c1,43,56,-2,-1,-3,7.5,50,-4.3,i,5.3
COc1ccc(NC(=O)CN(C)S(=O)(=O)c2ccccc2)cc1,-4,-6,-7,3,-1,-7.2,5,-1.4,i,4.7
COc1cc(-n2nc(C)c3c2OC(N)=C(C#N)C3c2ccccc2)c(Cl)c(Br)c1O (centres undefined),18,-5,39,nt,nt,nt,-7,65*,nt,nt
COc1ccc(Cn2c(C3CCCCC3)nc3c(c(=O)c4ccccc4n3C)c2=O)cc1,13,19,-1,nt,nt,nt,?,-1.9,nt,nt
O=C1c2ccccc2C(=O)C1Cc1cccc2ccccc12,54,1,-7,-16,-20,-1.1,-1,-2.1,i,-3.4
CCn1c(=N)c(S(=O)(=O)c2ccc(Cl)cc2)cc2c(=O)n3ccccc3nc21,-7,-4,nt,nt,nt,nt,11,2.3,nt,nt
CCOc1ccc(-n2ccnc2SCC(=O)Nc2cc(C)on2)cc1,-24,-10,-19,-3,-1,2.1,-5,5.0,nt,0.6
O=C(CSc1nnc(-c2ccccc2F)n1C1CC1)NC(=O)c1cccc([N+](=O)[O-])c1,-8,7,nt,8,12,-5.1,-9,-0.2,i,-2.7
CC(NC(=S)NC1CCCCC1)c1ccc(C(C)(C)C)cc1 (centres undefined),-21,99*,-3,13,9,6.0,42,0.6,i,0.9
Cc1ccccc1N(CC(=O)Nc1ccccc1C(=O)NCc1ccco1)S(=O)(=O)c1ccccc1,3,5,8,nt,nt,nt,14,-0.5,nt,nt
O=C(OCc1nnc(-c2ccccc2)o1)c1cc(Cl)ccc1[N+](=O)[O-],-7,-4,-20,7,2,-0.4,-4,3.7,nt,0.4
CCC(C)(C)NC(=O)C(c1ccc(OC)cc1)N(C(=O)CCC(=O)Nc1cc(C)on1)c1cccc(OC)c1 (centres undefined),4,2,0,-2,-6,-1.1,1,3.0,i,3.7
COc1ccccc1N=Nc1c(C)noc1C,-6,-4,-2,4,-3,0.8,-8,-0.3,i,-1.1

# 4 records picked at random from those above:
SMILES,Calb FLC,Beta cell apopt,ALR inh,rRNA inh HTS,rRNA inh HTS OD600,rRNA inh HTS RFP,T cruzi inh,RanGTP-Imp inh,FGF22 binding,MLL AF4-AF9 inh
COc1ccc(Cn2c(C3CCCCC3)nc3c(c(=O)c4ccccc4n3C)c2=O)cc1,13,19,-1,nt,nt,nt,?,-1.9,nt,nt
CC(NC(=S)NC1CCCCC1)c1ccc(C(C)(C)C)cc1 (centres undefined),-21,99*,-3,13,9,6.0,42,0.6,i,0.9
COc1ccc(NC(=O)CN(C)S(=O)(=O)c2ccccc2)cc1,-4,-6,-7,3,-1,-7.2,5,-1.4,i,4.7
Cc1cccc(-n2nc([N+](=O)[O-])c(=NC3CCN(Cc4ccccc4)CC3)n2O)c1,43,56,-2,-1,-3,7.5,50,-4.3,i,5.3

# Next section
SMILES,Calb FLC,Beta cell apopt,ALR inh,rRNA inh HTS,rRNA inh HTS OD600,rRNA inh HTS RFP,T cruzi inh,RanGTP-Imp inh,FGF22 binding,MLL AF4-AF9 inh
Cc1ccccc1OCC(=O)NCCNC(=O)c1cccnc1,-4,4,-4,0,7,-1.7,3,1.9,i,1.5
CC(C)NC(=O)c1ccc(N(Cc2ccccc2)S(C)(=O)=O)cc1,1,-3,-13,18,13,3.0,2,1.8,i,2.3
COC(=O)CNC(=O)c1ccccc1[N+](=O)[O-],-3,3,2,12,9,0.7,-18,4.3,i,-0.6
CN1C(=O)[C@H]2[C@@H](/C=C/c3ccccc3)N3C(=O)CN(Cc4ccc(-c5ccccc5)cc4)C(=O)[C@@]3(C)[C@H]2C1=O,nt,0,4,-4,-25,27,nt,nt,i,nt
CCN(CC)S(=O)(=O)c1cc(NC(=S)NC(=O)C2CCCC2)ccc1C,nt,-2,-4,-15,-24,11,nt,nt,i,0.4
CN(C)/C=C1\C(=O)N(c2ccc(F)cc2F)C(c2cccnc2)S1(=O)=O (centres undefined),-1,0,-10,7,-6,-3.7,21,-4.0,i,-6.7
O=C(CN1CCN(c2ccccc2)CC1)c1ccc2cc[nH]c2c1,-5,-3,5,-2,-1,0.1,1,2.2,i,0.1
Cc1occc1C(=O)Nc1ccc(S(N)(=O)=O)cc1,-29,-8,nt,17,22,-1.7,0,-0.5,i,-0.4
CC(OC(=O)Cc1c(F)cccc1Cl)C(=O)NC1CCCCC1C (centres undefined),nt,1,nt,1,3,2.6,nt,nt,i,-4.1
COc1ccc(-c2csc(NC(=O)c3ccc(S(=O)(=O)N4CCc5ccccc5C4)cc3)n2)c(OC)c1,-2,0,-3,nt,nt,nt,-1,3.9,nt,nt
Cc1cccc(C)c1C(=O)N[C@@H](Cc1ccccc1)C(=O)O,0,-4,-10,7,13,9.1,-17,0.1,i,-1.8
O=C(COC(=O)C1CC2CCCC(C1)C2=O)NC(=O)c1ccc(OC(F)F)cc1 (centres undefined),-3,-8,0,3,0,-2.2,?,0.2,i,-3.0
O=C(Cc1ccc(F)cc1)NCCc1ccccc1,-6,-15,0,13,6,4.4,-10,1.2,nt,nt
CC(C)Nc1nc(SCC(N)=O)nc(N2CCOCC2)n1,-4,4,-2,nt,nt,nt,20,-0.6,nt,nt
CCc1nn(CC(=O)NCCc2ccc(S(N)(=O)=O)cc2)c(=O)c2cc3sccc3n12,16,-2,1,nt,nt,nt,-12,?,nt,nt
O=C(COc1ccccc1)OCc1cc2ccccc2[nH]c1=O,-7,nt,-6,nt,nt,nt,-5,4.0,nt,nt
COc1cc(NC(=S)NCCC(c2ccccc2)c2ccccc2)cc(OC)c1,-12,-1,-3,-8,-11,-0.8,62*,-3.0,nt,-0.7
C/C(=N/OC(=O)c1ccc(F)cc1)c1ccc(C)cc1,1,1,-3,nt,nt,nt,-13,-0.7,nt,nt
CCN(CC(=O)Nc1ccccc1OC)Cc1csc(CC(=O)Nc2ccc(C)cc2)n1,nt,-5,-3,18,8,15,nt,nt,i,-0.1
Cc1cc(N/N=C/c2ccc(N(C)C)cc2)c2ccccc2n1,1,-2,54,6,9,1.7,-12,-3.6,i,-2.7
Oc1ccc(C2=NN(c3ccccc3)C(c3ccc(F)cc3)C2)cc1 (centres undefined),-8,-2,97*,-4,-13,0.6,40,-3.4,i,-5.9
CCN(CC)C(=S)NC(=O)c1ccc(OC)c(Br)c1,4,-1,3,nt,nt,nt,-22,0.7,nt,nt
COc1ccccc1Nc1c2c(nc3ccc(N)cc13)CCCC2,36,20,99*,6,3,-9.4,26,0.3,i,61*
CN(C)CCCNC(=S)N(CCN(C)C)Cc1cc2cc3c(cc2[nH]c1=O)OCCO3,-1,-3,-9,24,11,2.9,-10,-1.8,i,4.0
COc1ccc(-n2nnnc2SCC(=O)Nc2cccc(C)n2)cc1OC,19,-7,-2,-20,-19,3.4,0,-2.1,i,-2.6
N/C(=N\OC(=O)c1cccc(Br)c1)c1ccc(Br)cc1,-5,0,3,nt,nt,nt,5,-3.3,nt,nt
Cc1c(S(=O)(=O)N2CCOCC2)c(=O)n(C)c(=O)n1C,-3,-2,nt,8,8,-4.6,-19,0.2,i,3.2
COc1cc(O)c2c(c1)OC(C)(C)CC2=O,28,-7,nt,nt,nt,nt,-2,5.8,nt,nt
CCCn1nc2cc(C(=O)N(CC)c3ccc(OC)cc3)ccc2c1OCC,1,-8,-2,0,0,1.7,-8,-1.3,i,3.4
O=C1CC(C(=O)N2CCOCC2)C2(CCCC2)O1 (centres undefined),29,2,nt,nt,nt,nt,-7,3.5,nt,nt
O=C(c1cccs1)N1CCN(c2nc3c(F)cc(F)cc3s2)CC1,-3,nt,-2,-14,-26,-3.0,-14,0.3,i,-2.6
C=C1/C(=C\C=C2/CCC[C@]3(C)[C@@H]([C@H](C)/C=C/[C@@H](O)C4CC4)CC[C@@H]23)C[C@@H](O)C[C@@H]1O,nt,9,26,nt,nt,nt,18,?,nt,nt
O=C(NC(CC(=O)N1CCN(c2ccc([N+](=O)[O-])cc2)CC1)c1ccccc1)c1ccccc1Cl (centres undefined),-6,5,-14,3,0,3.6,-20,0.6,i,2.5
CCCCN(CCCNc1ncnc2nc[nH]c12)c1ccccc1,-9,1,93*,-46,-54,-10,42,-0.8,i,-6.8
CCN(CC)S(=O)(=O)c1ccc(S(=O)(=O)Nc2cc3c(cc2C(C)=O)OCO3)cc1,-4,-14,1,15,5,4.9,3,-9.6,i,-38
COc1cccc(CNCCN2CCOCC2)c1OC,-3,-4,-34,nt,nt,nt,11,3.7,nt,nt
COC(=O)[C@H](CC(C)C)NS(=O)(=O)N[C@@H](CC(C)C)C(=O)OC,nt,-12,-6,15,-4,11,nt,nt,i,-1.0
CCn1cc(/C=N/NC(=O)c2ccc3c(c2)OCO3)cn1,-4,-4,-4,nt,nt,nt,-7,4.6,nt,nt
CC1CCN(C(=O)COC(=O)c2ccc3ccccc3n2)CC1,nt,2,-3,-1,5,-1.9,nt,nt,i,-1.1
CC1CC(C)CN(C(=O)CNS(=O)(=O)c2cccs2)C1 (centres undefined),-2,0,0,4,23,-0.6,-5,-3.3,i,-1.9
Cn1c(SCC(=O)N/N=C/C=C\c2ccccc2[N+](=O)[O-])nc2ccccc21,4,3,-11,-4,-7,-1.0,-8,5.6,i,0.8

# Some of these compounds in order of their number in rRNA inh HTS OD600, ascending:
Structure | ALR inh | rRNA inh HTS | rRNA inh HTS OD600 | rRNA inh HTS RFP | RanGTP-Imp inh | FGF22 binding | MLL AF4-AF9 inh
CCCCN(CCCNc1ncnc2nc[nH]c12)c1ccccc1 | 93* | -46 | -54 | -10 | -0.8 | i | -6.8
O=C(NC(CC(=O)N1CCN(c2ccc([N+](=O)[O-])cc2)CC1)c1ccccc1)c1ccccc1Cl (centres undefined) | -14 | 3 | 0 | 3.6 | 0.6 | i | 2.5
CC1CC(C)CN(C(=O)CNS(=O)(=O)c2cccs2)C1 (centres undefined) | 0 | 4 | 23 | -0.6 | -3.3 | i | -1.9

# Structures listed so far printed as active in MLL AF4-AF9 inh:
compound	ALR inh	rRNA inh HTS	rRNA inh HTS OD600	rRNA inh HTS RFP	RanGTP-Imp inh	FGF22 binding	MLL AF4-AF9 inh
COc1ccccc1Nc1c2c(nc3ccc(N)cc13)CCCC2	99*	6	3	-9.4	0.3	i	61*
